MT1-MMP reporter: MT1-MMP gene expression reporter suppression – cell-based, luciferase reporter, luminescence (AID 618). MT1-MMP promoter luciferase reporter cells, luminescence. calls from a first round at 10 µM; hits with a dose series show EC50 in µM. actives 0.62% (n = 87,000);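 active = over half of the reporter light lost at 10 µM or EC50 under 50 µM; inactive = the rest and hits that failed the dose series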;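 also: actives suppress MT1-MMP promoter-driven transcription so potencies describe inhibitors; HT1080 fibrosarcoma cells; overnight exposure; toxic or luciferase-blocking compounds were not removed from the actives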
WNV NS2B-NS3 inh: blocks West Nile virus NS2B-NS3 protease activity | P06935 | WNV NS2B-NS3 protease, fluorogenic substrate Ex360/Em465; stronger effect = lower value | z-score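 (tested at a level between 10 and 100 µM)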 | actives 0.18% (n = 65,000) | AID 577;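 active = z-score at -3 or under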;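 also: score is relative to mean and spread of the compound wells of a plate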
Target sequence (P06935 1371-1501 limits assumed): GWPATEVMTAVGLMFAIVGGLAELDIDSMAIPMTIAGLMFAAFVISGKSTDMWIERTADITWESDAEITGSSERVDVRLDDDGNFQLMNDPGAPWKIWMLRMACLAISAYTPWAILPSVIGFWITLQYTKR
Target sequence (P06935 1502-1679 limits assumed): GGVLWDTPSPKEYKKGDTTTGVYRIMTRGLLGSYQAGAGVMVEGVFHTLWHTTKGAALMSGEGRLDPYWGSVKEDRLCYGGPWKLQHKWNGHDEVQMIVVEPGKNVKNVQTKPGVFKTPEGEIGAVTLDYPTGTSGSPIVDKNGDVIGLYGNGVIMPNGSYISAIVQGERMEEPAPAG
Hsc70: Hsc70 inhibitors, probe displacement, primary screen, biochemical, fluorescence polarization (AID 568); Hsc70 fluorescence polarization, probe displacement; higher % means a stronger effect; strong numbers were not always called active; displacement, % at 20 µM; hits with a dose series show IC50 in µM; 83,000 tested, under 10 active;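 active = displacement above 50% without optical interference and an IC50 on retest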;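 also: ATPase domain with a fluorescein-tagged ATP probe; 0% = vehicle and 100% = excess ADP; read after one hour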
* marks the source's active call; other numbers are inactive results; i = inactive; x = no result given.

SMILES	MT1-MMP reporter	WNV NS2B-NS3 inh	Hsc70
CCOC(=O)c1sc(NC(=O)c2cncc(Br)c2)nc1C	i	x	-2.5%
O=C(c1ccccn1)N(CC1CCCO1)C1(C(=O)NC2CCCCC2)CCCCC1 (centres undefined)	i	0.9	-9.4%
CCOC(=O)CSc1nc2ccccc2c(=O)n1NC(=O)c1ccccc1	i	-0.88	1.0%
O=c1oc(-c2ccccc2)nc2c1C1(CCCCC1)Cc1ccccc1-2	i	x	1.2%
COC(=O)c1nc(NC2=NCCCCC2)n[nH]1	i	0.96	-7.8%
CCCCCC(=O)N1CCN(CCN=CC2=C(O)CC(c3ccco3)CC2=O)CC1 (centres undefined)	i	-0.8	-1.9%
O=C(CN1CCCCC1)Nc1ccccc1-c1ccccc1	i	x	7.1%
Nc1nc(COc2ccccc2)cs1	i	x	6.3%
O=C(O)CSC1CC(=O)N(c2ccc(Cl)cc2)C1=O (centres undefined)	i	-1.4	1.0%
Cc1cc(C)n(-c2nnc(SCC(=O)NC3CCCC3)c3ccccc23)n1	i	x	-1.6%
COCC(=O)Nc1ccc(C)c(Cl)c1	i	1.1	5.6%
COc1ccc(N=C2SC(C(=O)O)CC(=O)N2C)cc1 (centres undefined)	i	0.77	-3.6%
Cc1ccc(S(=O)(=O)N2CCC(C(=O)N[C@H](C(=O)N3CCN(C)CC3)C(C)C)CC2)cc1	i	0.26	-3.2%
O=C(CSc1nc(SCC(=O)NCc2ccccc2)n(-c2ccccc2)n1)NCc1ccccc1	i	x	4.5%
c1nc(NCC2CCCO2)c2[nH]cnc2n1 (centres undefined)	i	0.34	5.6%
O=C(CN1C(=O)CC(c2ccccc2)=Nc2ccccc21)NCc1ccco1	i	0.43	-1.1%
CS(=O)(=O)N(Cc1cc2ccccc2[nH]c1=O)C1CCCCC1	i	-0.58	-3.3%
CCC(=O)NCCn1c(C)cc2ccccc21	i	2	0.4%
COC(=O)c1cc(-c2c(C)oc3cc(OC(C)C)ccc3c2=O)c(C)o1	i	1.1	2.5%
CCOc1ccc(OCCN2C(=O)NC3(CCCc4ccccc43)C2=O)cc1 (centres undefined)	i	-1.7	-2.4%
CCOCCc1nnc(NC(=O)COC)s1	i	2.3	3.0%
CC(C)CC(C(=O)Nc1ccc2c(c1)OCCO2)N1C(=O)c2ccccc2C1=O (centres undefined)	i	-1.1	2.8%
O=C(c1ccco1)N1CCN(C(=O)c2cc(-c3ccccc3)nc3ccccc23)CC1	i	x	0.8%
CCOC(=O)N1CCN(c2c(N3CCN(c4ccccc4OC)CC3)c(=O)c2=O)CC1	i	0.67	3.0%
CCOc1cc(N2CCOCC2)c(OCC)cc1NC(=O)c1ccc(=O)n(Cc2ccccc2)n1	i	0.75	7.2%

Part of the list above, reformatted:
The line under a structure holds: MT1-MMP reporter	WNV NS2B-NS3 inh	Hsc70
CCOC(=O)c1sc(NC(=O)c2cncc(Br)c2)nc1C
 : i	x	-2.5%
COCC(=O)Nc1ccc(C)c(Cl)c1
 : i	1.1	5.6%
CC(C)CC(C(=O)Nc1ccc2c(c1)OCCO2)N1C(=O)c2ccccc2C1=O (centres undefined)
 : i	-1.1	2.8%

(listing goes on)
SMILES	MT1-MMP reporter	WNV NS2B-NS3 inh	Hsc70
COc1ccc(NC(=O)c2cc(=O)c3ccccc3o2)cn1	i	-1.1	40%
CCCc1[nH]nc2c1C(c1cc(OC)ccc1F)C(C#N)=C(N)O2 (centres undefined)	i	0.87	-2.1%
Brc1cccc(-c2nnco2)c1	i	1.6	1.5%
COc1cc(C2C(C#N)=C(N)Oc3c2oc(CO)cc3=O)cc(OC)c1OC (centres undefined)	i	-0.51	1.7%
Nc1[nH]nc2nc(N3CCOCC3)nc(-c3ccccc3)c12	i	0.00084	-3.0%
Cc1ccc(NC(=O)c2ccccc2)cc1	i	x	-4.2%
c1ccc(-c2ccc(-c3ccccn3)nn2)nc1	4.2µM*	0.08	4.7%
O=C(COC(=O)CNS(=O)(=O)/C=C/c1ccccc1)NC1CCS(=O)(=O)C1 (centres undefined)	i	1.3	-2.4%
O=C(CSc1nc(-c2ccco2)cc(C(F)(F)F)n1)N1CCc2ccccc2C1	i	-0.55	4.7%
CCOC(=O)C1=C(C)NC(=O)C1CC(=O)Nc1ccccc1 (centres undefined)	i	-0.9	-2.5%
COc1ccc(/C(O)=C2\C(=O)C(=O)N(c3cc(C)on3)C2c2ccc(OC)c(OC)c2)cc1OC (centres undefined)	i	-0.5	-6.4%
O=S(=O)(NCCc1ccccc1)c1cccc(S(=O)(=O)N2CCOCC2)c1	i	2.2	2.0%
Nn1c(SCC(=O)Nc2ccc(F)cc2)nnc1-c1cccnc1	i	-0.73	0.2%
Cn1c(Cc2c[nH]c3ccccc23)n[nH]c1=S	i	x	4.0%
CCOc1cc(C2C3=C(CCCC3=O)NC3=C2C(=O)CCC3)ccc1OCCO	i	0.84	3.9%
Cc1cc(=O)[nH]c(SCc2nc3ccccc3s2)n1	i	-0.25	-5.2%
Cc1nn2c(=O)nc3sc4c(c3c2[nH]c1=O)CCCC4	i	-0.95	-2.0%
COc1ccc(CCNC(=O)CSc2nc(C)nc3c2c(=O)n(C)c(=O)n3C)cc1OC	i	-1.9	-0.3%
COc1cccc(NC(=O)N2CCN(C(=O)C(Cc3ccc(OC)c(OC)c3)NC(C)=O)CC2)c1 (centres undefined)	i	0.2	7.7%
COc1ccccc1-c1nn2c(C(F)(F)F)nnc2s1	i	0.05	-3.1%
CCC(Sc1nc2ccccc2[nH]1)C(=O)Nc1cc(C)on1 (centres undefined)	i	-1	-2.8%
O=C(O)c1ccc2cc[nH]c2c1	i	-0.53	0.2%
N#Cc1nc(COc2ccccc2)oc1N1CCOCC1	i	-0.26	-1.5%
CCC(=O)N1CCc2cc(S(=O)(=O)NC(C(=O)NCc3ccc(F)cc3)C(C)C)ccc21 (centres undefined)	i	-1.1	1.7%
COc1ccccc1N1CCN(C2CCN(C(=O)c3cc(OC)c(OC)c(OC)c3)CC2)CC1	i	-0.09	-6.0%

(more compounds)
SMILES	MT1-MMP reporter	WNV NS2B-NS3 inh	Hsc70
Fc1ccc(OCc2nc(-c3ccc(Br)o3)no2)c(F)c1	i	0.47	1.4%
Cc1cccc(NC(=O)c2snc3c(=O)[nH]cnc23)c1	i	-0.65	-4.2%
CN(C)c1ccc(NC(=O)Cn2cc3c(n2)CCCC3)cc1	i	0.36	5.0%
COc1cccc(-n2c(SCC(=O)N3CCOCC3)nnc2-c2c[nH]c3ccccc23)c1	i	-0.3	1.3%
CC(=O)Nc1ccc(-c2nnn(CC(=O)c3ccccc3)n2)cc1Cl	i	1.5	-8.5%
CCOc1ccc(-c2[nH]nc3c2C(c2ccc4c(c2)OCO4)C(C#N)=C(N)O3)cc1OC (centres undefined)	i	0.33	6.7%
Cc1cc(C)nc(NC(=O)CSc2nc3cc(Cl)ccc3s2)n1	i	x	-0.2%
COc1cc(C(=O)Nc2ccc(S(=O)(=O)Nc3onc(C)c3C)cc2)cc(OC)c1OC	i	1.3	4.1%
O=C(CSc1nnc(-c2c[nH]c3ccccc23)o1)N1c2ccccc2CCc2ccccc21	i	2.2	-4.7%
CCCSc1nc(N2CCCC2)c2c(c1C#N)CC(C)(C)OC2	i	-0.71	-13%
Cc1cc(NC(=O)CSc2nnnn2Cc2ccccc2)no1	i	0.96	0.7%
N#Cc1c(N)nc(-c2ccccc2)nc1-c1ccccc1	i	-0.89	10%
Cc1nc2ccccc2c(=O)n1NC(=O)Cc1ccccc1	i	x	-1.8%
Cc1csc(SCC(=O)O)n1	i	-0.59	-3.3%
COc1ccc(OC)c(-c2cc(C(=O)N3CCN(c4ccccc4)CC3)no2)c1	i	-0.37	1.0%
CCn1c(=O)cc(SCC(=O)NCc2ccccn2)c2ccccc21	i	-0.84	53%
O=c1n(-c2ccccc2)c(=O)n(Cc2ccccn2)n1Cc1ccccn1	i	0.21	-1.6%
c1ccc2c(c1)ncn2CCn1cnc2ccccc21	i	0.02	6.1%
CC(C)OC(=O)c1nnc(Cc2ccc(F)cc2)o1	i	-0.07	0.3%
COC(=O)CSc1nc(NC#N)nc(NC(C)C)n1	i	x	3.6%
CCN(CC#CCC(O)(c1ccccc1)C1CCCC1)C(C)C (centres undefined)	i	x	1.6%
CC(=O)Nc1nonc1-c1nc2ccccc2n1CCC#N	i	-0.15	2.8%
Cc1cc(C)cc(N(CC(=O)NCc2cccnc2)S(C)(=O)=O)c1	i	0.38	-9.3%
O=S(=O)(c1ccc2ccccc2c1)N1CCC(c2nc(-c3ccncc3)no2)CC1	i	x	-2.6%
CC(C)CNC(=S)N1CCC(NC(=O)C23CC4CC(CC(C4)C2)C3)CC1	i	x	1.5%

The list goes on.
SMILES	MT1-MMP reporter	WNV NS2B-NS3 inh	Hsc70
CN1CCN(Cc2ccc(-c3ccc(Cl)cc3)o2)CC1	i	-0.85	-0.7%
CCc1cccc(C)c1NC(=O)C1C2CCC(O2)C1C(=O)O (centres undefined)	i	1	1.1%
Fc1cccc(F)c1CSc1nc2ccccc2[nH]1	i	x	0.4%
CN(C)c1oc(-c2cccs2)nc1C#N	i	3.1	-5.6%
Cc1cc(C)n(CC(O)COc2ccccc2C(=O)Nc2ccccc2)n1 (centres undefined)	i	-1	0.1%
O=C1c2ccccc2C(=O)N1Cc1nc(-c2ccccc2)no1	i	0.99	-1.3%
CC(C)C(c1nnnn1Cc1ccc(F)cc1)N1CCN(C2CCCCC2)CC1 (centres undefined)	i	0.44	5.7%
Cc1noc(C)c1C(=O)N1CCCC1	i	x	3.1%
Cc1ccc(S(=O)(=O)c2nc(-c3ccc(F)cc3)oc2SCC(N)=O)cc1	i	1.4	-0.2%
CCOC(=O)C1CCN(C(=O)C2CCN(c3nc4ccc(OC)cc4s3)CC2)CC1	i	2.2	-3.3%
CCOC(=O)CNC(=O)C(=O)c1c(O)[nH]c2ccccc12	i	-1.3	-0.3%
CC(=O)NC1CC2CCCC(C1)N2C(=O)Nc1ccccc1 (centres undefined)	i	x	-0.2%
Cc1ccc(C(=O)Nc2nc3ccccc3n2CCN2CCCC2)cc1	i	-1.2	-2.6%
O=C(O)CCCCCNC(=O)c1ccccc1	i	x	2.4%
CCC1(C)Cc2c(sc3c2c(=O)n(C)c2nnc(SCC(=O)c4ccc(Cl)cc4)n32)CO1 (centres undefined)	i	0.27	0.5%
O=C(NCc1cccs1)c1ccc(CS(=O)(=O)c2ccc(Cl)cc2)o1	i	x	-0.8%
COc1ccc(C)cc1S(=O)(=O)Nc1ccc(F)c(Cl)c1	i	-2.1	0.0%
Cn1c(=O)[nH]c(=O)c2c1nc(N1CCN(Cc3ccccc3)CC1)n2CCCc1ccccc1	i	0.32	-0.5%
O=S(=O)(c1cccc(-c2nnc(SCc3nc4ccccc4s3)o2)c1)N1CCOCC1	i	-0.53	-29%
O=C(CN(CC1CCCO1)C(=O)CNS(=O)(=O)c1ccccc1)NCc1ccccc1 (centres undefined)	i	2.1	0.8%
COc1cccc(-n2c(COc3ccc(C)cc3)nnc2SCC(=O)O)c1	i	0.34	0.5%
CCOC(=O)C1=C(C)NC(C)=C(C(=O)OCC)C1C(=O)OCC(=O)N1CCC(C)CC1	i	-0.76	5.1%
Nc1nc(SCC(=O)N2CCCc3ccccc32)n(-c2ccccc2)n1	i	-0.63	4.8%
O=C(O)c1cccc(C(=O)Nc2cccc(NC(=O)C3CCCO3)c2)c1 (centres undefined)	10µM*	-0.5	3.4%
O=C(Nc1ccc2c(c1)Cc1ccccc1-2)c1cc2ccccc2o1	i	x	1.1%

Reformatted bar-delimited: entries from further up
smiles | MT1-MMP reporter | WNV NS2B-NS3 inh | Hsc70
Nc1nc(SCC(=O)N2CCCc3ccccc32)n(-c2ccccc2)n1 | i | -0.63 | 4.8%
O=C(O)c1cccc(C(=O)Nc2cccc(NC(=O)C3CCCO3)c2)c1 (centres undefined) | 10µM* | -0.5 | 3.4%
O=C(Nc1ccc2c(c1)Cc1ccccc1-2)c1cc2ccccc2o1 | i | x | 1.1%

Returning to the listing, starting two compounds before the break.
SMILES	MT1-MMP reporter	WNV NS2B-NS3 inh	Hsc70
O=C(O)c1cccc(C(=O)Nc2cccc(NC(=O)C3CCCO3)c2)c1 (centres undefined)	10µM*	-0.5	3.4%
O=C(Nc1ccc2c(c1)Cc1ccccc1-2)c1cc2ccccc2o1	i	x	1.1%
O=C(CC1(O)C(=O)Nc2cc(Cl)cc(Cl)c21)c1ccncc1 (centres undefined)	i	-0.28	-2.6%
CCOc1ccccc1N=c1oc2cc(O)ccc2cc1C(=O)NCC1CCCO1 (centres undefined)	i	x	-4.1%
CC12C=CC3(O1)C(C(=O)N(c1cccnc1)C3C(=O)NC1CCCCC1)C2C(=O)Nc1ccccc1 (centres undefined)	i	0.39	4.4%
CCOc1ccc(S(=O)(=O)NC(C)(C)C)cc1-c1nc2c(C(C)(C)C)nn(C)c2c(=O)[nH]1	i	0.43	-3.5%
CC(Cc1cccs1)NC(=O)NC1CCCCC1 (centres undefined)	i	-0.61	5.8%
CCN(C(=O)COc1ncnc2scc(-c3ccc(F)cc3)c12)C1CCS(=O)(=O)C1 (centres undefined)	i	0.34	-4.4%
CCc1ncc(C(=O)c2ccc(OC)cc2)n1C	i	-0.9	-3.7%
Cn1c(=O)c2c(nc(N3CCCCC3)n2CCSc2nc3ccccc3o2)n(C)c1=O	i	2.2	7.5%

3 records drawn at random from those above, as already listed:
SMILES	MT1-MMP reporter	WNV NS2B-NS3 inh	Hsc70
CC12C=CC3(O1)C(C(=O)N(c1cccnc1)C3C(=O)NC1CCCCC1)C2C(=O)Nc1ccccc1 (centres undefined)	i	0.39	4.4%
CC(Cc1cccs1)NC(=O)NC1CCCCC1 (centres undefined)	i	-0.61	5.8%
CCOc1ccccc1N=c1oc2cc(O)ccc2cc1C(=O)NCC1CCCO1 (centres undefined)	i	x	-4.1%

Screening results (PubChem BioAssay)
